Mtb growth – M. tuberculosis H37Rv growth inhibitors, H37Rv strain (AID 1626); M. tuberculosis H37Rv growth inhibition; higher % means a stronger effect; inhibition, % at 10 µM, or IC50 in µM where a hit was titrated; 0.95% of 220,000 active;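 active = confirmed in a dose series; inconclusive = inhibition above 80% but not taken into the dose series; inactive = below 80% or under 30% at every dose of the series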;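 note: bacteria incubated seven days before Alamar blue readout; 0% = bacteria only wells and 100% = bacteria with antibiotic wells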
Mtb bLac sens – beta-lactam sensitization of Mtb H37Rv; 0.27% of 330,000 active; inhibition, % at 25 µM; M. tuberculosis H37Rv growth with meropenem, percent inhibition; hits of this screen are not shown here; AID 434955;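 active = about 74% or more and at least 40 points above the plate without the antibiotic, then above 30% in a dose series; inconclusive = first-round hits that could not be retested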;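 note: growth measured after seven days incubation then overnight dye step; 0% = bacteria only wells and 100% = bacteria with antibiotic; twin plates without the antibiotic show which effects depend on it; some results filed as inactive read as strong as hits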
YopH PTP inh – blocks Yersinia enterocolitica YopH tyrosine phosphatase. AID 898. fluorescence Ex485/Em525. 0.16% of 140,000 active. inhibition, %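 (about 10 µM by stock and volumes)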;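 active = inhibition of 50% or more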;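 note: controls were vehicle for no effect and minimum signal wells for full effect; inactives centre near -20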
RecA intein inh – blocks M. tuberculosis RecA intein splicing; P9WHJ3; cell-free RecA intein splicing, fluorescence; inhibition, %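 (about 9 µM by stock and volumes)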; 0.75% of 290,000 active; AID 2221; in the data active = inhibition above about 30%; inconclusive = no clear call, values can overlap the other calls;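 note: 0% = vehicle wells and 100% = reference inhibitor control wells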
Target sequence (P9WHJ3 whole entry, looked up): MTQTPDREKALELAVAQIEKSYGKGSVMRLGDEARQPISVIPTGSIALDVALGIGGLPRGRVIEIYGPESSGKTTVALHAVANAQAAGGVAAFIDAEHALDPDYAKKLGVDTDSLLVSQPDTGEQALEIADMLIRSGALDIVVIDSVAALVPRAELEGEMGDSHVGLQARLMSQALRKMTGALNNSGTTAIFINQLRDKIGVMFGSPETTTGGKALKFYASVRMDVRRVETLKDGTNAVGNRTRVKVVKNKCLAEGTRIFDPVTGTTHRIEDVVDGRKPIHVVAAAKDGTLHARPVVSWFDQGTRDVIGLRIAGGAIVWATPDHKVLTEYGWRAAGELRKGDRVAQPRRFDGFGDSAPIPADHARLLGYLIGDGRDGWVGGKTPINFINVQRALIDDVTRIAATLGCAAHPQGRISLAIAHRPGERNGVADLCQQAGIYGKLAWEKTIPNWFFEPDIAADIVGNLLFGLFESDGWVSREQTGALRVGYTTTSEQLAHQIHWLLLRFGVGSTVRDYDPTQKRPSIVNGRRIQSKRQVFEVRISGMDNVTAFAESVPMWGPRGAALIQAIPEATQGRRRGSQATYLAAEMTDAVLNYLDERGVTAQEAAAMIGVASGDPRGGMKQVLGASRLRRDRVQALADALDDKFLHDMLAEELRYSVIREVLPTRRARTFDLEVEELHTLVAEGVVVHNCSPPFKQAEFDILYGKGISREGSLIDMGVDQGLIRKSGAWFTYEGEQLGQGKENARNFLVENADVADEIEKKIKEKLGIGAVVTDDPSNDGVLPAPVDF
Arbovirus inh – antivirals against arbovirus infection. inhibition, % at 10 µM. 0.37% of 200,000 active. AID 1251. arbovirus infection cell-based antiviral screen;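 active = inhibition from about 30%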;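 note: bluetongue infection of BSR cells; cell survival read as ATP light after 72 h; 0% = infected wells without compound and 100% = uninfected wells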
Arbovirus inh repeat – also measured in Arbovirus inh; calls as there; inhibition, %; measured here: 10K subset replicate screen; many hits read low in the repeat;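 first of two repeat runs on a subset; 0% = infected and 100% = uninfected wells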
* = called active by the depositor; u = inconclusive; x = not tested or not shown.

SMILES	Mtb growth	Mtb bLac sens	YopH PTP inh	RecA intein inh	Arbovirus inh	others
OCCC1CN(Cc2cnn(-c3ccccc3Cl)c2)CCN1Cc1ccsc1 (stereo not given)	-4%	3	x	0.5	5
CCSc1nnc([C@@H](N)Cc2ccccc2)o1	-5%	-4	3	x	5
COc1ccc(S(=O)(=O)NCC2CCC(C(=O)NCc3ccc(F)cc3)CC2)cc1 (stereo not given)	x	-2	x	3.1	x
COCCSc1nnc(NC(=O)CS(=O)(=O)c2ccccc2)s1	x	13	x	0.1	x
Cc1nc(NCCN2CCOCC2)c2nnn(Cc3ccccc3Cl)c2n1	-2%	-9	-34	-2.5	-3
O=C(c1cccc(Br)c1)N1CCN(C(=O)N2CCOCC2)CC1	5%	-9	-8	2.2	0
CCn1c(-c2cc(-c3cc(OC)ccc3OC)nc3ccccc23)n[nH]c1=S	5%	4	19	0.4	2
COc1ccc(CCNc2cc(C)nc3c(-c4ccccc4)c(C)nn23)cc1OC	3.6µM*	88	-17	9.3	9
COc1ccc(N2CCN(S(=O)(=O)c3cc4c(cc3C)N(C(C)=O)CCO4)CC2)cc1	x	-4	x	-1.3	x
COc1ccc(Nc2nc3ccccc3nc2C)cc1	13%	18	-44	1.5	8
Cc1n(CC(=O)c2ccc(F)cc2)c2ccccc2[n+]1C	-10%	3	x	-0.7	11
CCNC(=S)N/N=C/c1c(C)nn(-c2cccc(Cl)c2)c1Cl	-5%	3	-27	-0.3	-4
O=C(N1CCN(c2ccc(F)cc2)CC1)C12CC3CC(CC(C3)C1)C2	-12%	4	-46	x	0	Arbovirus inh repeat=-3
CC[C@H](C)[C@@H](CN[C@H](C)CNC)NCCC(c1ccccc1)c1ccccc1	x	68	x	0.8	x
O=C(Nc1nc(-c2nc3ccccc3s2)cs1)C1CC1	8%	0	-41	-1.7	2
O=[N+]([O-])c1ccccc1-n1cnc2ccccc21	1%	1	x	x	-4
CCNC(=S)N/N=C(\C)c1ccco1	-9%	0	x	-2.3	1
C/C=C(\C)C(=O)NCCN1C2=NC[C@H](C(C)C)N2C[C@@H]1Cc1ccc(OC)cc1	-8%	-10	x	-2.5	-1
CC1CCCN(S(=O)(=O)c2ccc(NC(=O)CN3CCN(C)CC3)cc2)C1 (stereo not given)	1%	1	-31	0.4	-5
Cc1cc2occ(CC(=O)NNC(=O)c3ccccc3)c2cc1C	x	-12	x	1.7	x
CCC(=O)Nc1ccc(OC)cc1OC	-3%	-1	34	0.6	7
CN(C(=O)COC(=O)CNC(=O)C12CC3CC(CC(C3)C1)C2)C1CCS(=O)(=O)C1 (stereo not given)	-8%	-5	-23	-0.7	3
CC(C)CCN1CCN(C2CCN(c3ccccc3)CC2)CC1CCO (stereo not given)	2%	-6	x	-0.7	-13
COC(=O)C1=C(C)N(CCCC(=O)O)C(=O)NC1c1cc2c(cc1[N+](=O)[O-])OCO2 (stereo not given)	-10%	8	-3	-9.6	-3
CC(C)(C)NC(=O)NC(=O)CN1CCN(S(=O)(=O)c2ccc3c(c2)CCCC3)CC1	x	-14	x	0.5	x
CC(C)c1nnc(NC(=O)CCCCCN2C(=O)C3C4C=CC(C4)C3C2=O)s1 (stereo not given)	2%	-6	-39	0.0	3
CCOc1ccc(N(C)S(=O)(=O)c2ccc3[nH]cc(C(=O)NCC(OC)OC)c(=O)c3c2)cc1	x	-4	x	-1.1	x
COc1ccc(CCNC(=O)c2ccc(-c3cccc([N+](=O)[O-])c3)o2)cc1OC	0%	-7	x	1.2	-2
COC(=O)c1scc(C)c1-n1ccc(C(=O)C(=O)N(C)C)c1	4%	1	x	-0.2	10
CCOC(=O)c1c(S(=O)(=O)NCc2cccs2)c(C)n(C)c1C	x	-2	x	-0.9	x

An excerpt from above in order of molecular weight, lowest first.
SMILES	Mtb growth	Mtb bLac sens	YopH PTP inh	RecA intein inh	Arbovirus inh	others
COC(=O)c1scc(C)c1-n1ccc(C(=O)C(=O)N(C)C)c1	4%	1	x	-0.2	10
CCOC(=O)c1c(S(=O)(=O)NCc2cccs2)c(C)n(C)c1C	x	-2	x	-0.9	x
CCOc1ccc(N(C)S(=O)(=O)c2ccc3[nH]cc(C(=O)NCC(OC)OC)c(=O)c3c2)cc1	x	-4	x	-1.1	x

The list continues:
SMILES	Mtb growth	Mtb bLac sens	YopH PTP inh	RecA intein inh	Arbovirus inh	others
Cc1cc(CN(C)C)c(OC(=O)N(C)C)cc1C	u	3	-47	-0.4	2
O=C(CCN1C(=O)c2ccccc2C1=O)Nc1ccc(F)cc1F	-3%	-7	-23	0.5	-5
Cc1cccc(OCCSc2cc(C)nc(N)n2)c1	7%	19	-27	0.4	13	Arbovirus inh repeat=5
NC(=O)[C@H]1CC2(CC(c3cccc(NC(=O)[C@H]4CCC(=O)N4)c3)=NO2)CN1C(=O)c1cc([N+](=O)[O-])cc([N+](=O)[O-])c1 (stereo not given in full)	7%	47	x	-2.7	x
CCOC(=O)Nc1ccc2nc(Sc3ccc(Cl)cc3)sc2c1	x	51	x	1.4	x
CC(C)CCNC(=O)COc1ccc(N(C)S(=O)(=O)c2ccc(F)cc2)cc1	7%	0	x	1.4	-2
Cc1nc2ccccn2c1C(=O)NNC(=O)Nc1cccc(C(F)(F)F)c1	x	-5	x	-4.9	x
CCCC(c1nnnn1Cc1ccc(F)cc1)N1CCN(C2CCCCC2)CC1 (stereo not given)	2%	3	-22	0.0	-13
COc1cc(NC(=O)c2cccc(NC3=NC4CS(=O)(=O)CC4S3)c2)cc(OC)c1OC (stereo not given)	x	2	x	-2.9	x
CC1(c2nnc(-c3ccncc3)o2)CC(c2cccc(Cl)c2)=NO1 (stereo not given)	74%	98	x	-1.3	x
COc1ccc(/C(C)=N/OC/C(O)=C(\C#N)c2nc3ccccc3[nH]2)cc1	3%	7	3	1.4	-5
CS(=O)(=O)Nc1nnc(SCC(=O)N(c2ccccc2)c2ccccc2)s1	-2%	-6	-33	-0.2	11
CCOC(=O)C1CCCN(S(=O)(=O)c2ccc(Br)s2)C1 (stereo not given)	1%	0	9	x	4
COCc1cc(/C=N\NC(=O)Cc2ccc(OC)cc2)ccc1OC	-1%	-7	-20	-0.4	2
COc1cc2cc(C#N)c(SCC(=O)N3CCOCC3)nc2cc1OC	-6%	2	6	-1.2	-5

Fetched one by one from the list above, 4 records:
SMILES	Mtb growth	Mtb bLac sens	YopH PTP inh	RecA intein inh	Arbovirus inh	others
COCc1cc(/C=N\NC(=O)Cc2ccc(OC)cc2)ccc1OC	-1%	-7	-20	-0.4	2
CCOC(=O)c1c(S(=O)(=O)NCc2cccs2)c(C)n(C)c1C	x	-2	x	-0.9	x
COc1cc(NC(=O)c2cccc(NC3=NC4CS(=O)(=O)CC4S3)c2)cc(OC)c1OC (stereo not given)	x	2	x	-2.9	x
CN(C(=O)COC(=O)CNC(=O)C12CC3CC(CC(C3)C1)C2)C1CCS(=O)(=O)C1 (stereo not given)	-8%	-5	-23	-0.7	3

Continued:
SMILES	Mtb growth	Mtb bLac sens	YopH PTP inh	RecA intein inh	Arbovirus inh	others
CC(=O)c1ccc(NC(=O)C2CCCN(S(=O)(=O)c3c(C)[nH]c(=O)[nH]c3=O)C2)cc1 (stereo not given)	1%	4	x	1.4	6
CCOC(=O)CC1C(=O)NCCN1C(=O)NC1CCCCC1 (stereo not given)	-2%	-7	-9	-0.2	-3
Cc1noc(C)c1COC(=O)c1ccc2c(c1)OCO2	3%	-10	-22	x	1
CCCCN1C2=NCCCN2c2cc(C)c(C)cc21	x	3	-5	1.7	9
Cc1ccc(C)c(-n2cc(-c3ccc(Cl)cc3)nc2SCC(=O)NC2CCS(=O)(=O)C2)c1 (stereo not given)	1%	1	-25	3.4	-9
CCOC(=O)c1ccc(Nc2ncnc3ccccc23)cc1	92%	9	x	1.0	29
COC(=O)c1ccccc1NC(=O)CSc1n[nH]c(-c2cccnc2)n1	-12%	-9	x	3.4	24
Cc1cccc(NC(=O)c2ccc(S(=O)(=O)N3CCCCC3)cc2)c1	x	-18	x	5.9	x
Brc1ccc(C2=Nc3ccccc3C(c3ccncc3)=NN2)cc1	0%	0	x	-1.4	-8
O=C1/C(=C\c2cccc(O)c2)SC(=S)N1Cc1ccccc1	x	0	x	5.1	x
O=C1NC(=O)N(c2ccc(Cl)cc2)C(=O)/C1=C/c1coc2ccc(O)cc2c1=O	-3%	10	x	-5.4	x
CCOC(=O)c1oc2c(CN3CCN(CCO)CC3)c(O)c(CC)cc2c(=O)c1-c1nc2ccccc2s1	2%	1	x	-1.5	-6
C/C(=N\NC(=O)c1ccc(N(C)C)cc1)c1cccnc1	x	-1	x	2.9	x
O=[N+]([O-])c1cc(C=Nc2cccc3c(O)cccc23)ccc1Cl	x	27	x	64*	x
O=[N+]([O-])c1cc(Cl)ccc1N1CCN(c2ccccc2O)CC1	4%	1	x	13	17
COc1ccc(-n2cnnc2SCC(=O)N(C)C2CCS(=O)(=O)C2)cc1 (stereo not given)	-7%	11	-32	-2.7	7
O=C(CS(=O)(=O)c1cccc(Cl)c1)Nc1ccccc1Cl	-9%	1	-35	-1.2	-10
C=CCC(O)c1c(-c2ccccc2)nn(C)c1Cl (stereo not given)	x	-4	x	-1.6	4
CCOC(=O)C(C)Sc1nc(=O)n2cccc(C)c2n1 (stereo not given)	-4%	1	x	1.5	-12
O=C(CSc1nnc(CNC(=O)c2ccc(F)cc2)o1)NCC1CCCO1 (stereo not given)	x	u	x	3.5	x
CC/C(=N\NC(=O)c1ccccc1O)c1c(O)n(C2CCCCC2)c(=O)[nH]c1=O	x	5	x	22	x
CC(Oc1ccc(F)cc1)C(=O)Nc1ccccc1C(=O)NC1CC1 (stereo not given)	x	-1	x	-1.0	x
CC(OC(=O)CN1C(=O)NC2(CCCC2)C1=O)C(=O)Nc1cccc(Cl)c1Cl (stereo not given)	x	-3	x	-3.5	x
O=C(CNc1ccc2ccccc2c1)N/N=C/c1ccccn1	51%	95	x	5.3	x
COc1ccc(NC(=O)NC2(C(=O)N3CCCC(C)C3)CCCCC2)cc1 (stereo not given)	x	-2	x	1.4	x
CN(C(=O)COC(=O)C1COc2ccccc2O1)c1c(N)n(Cc2ccccc2)c(=O)[nH]c1=O (stereo not given)	x	-1	x	0.2	x
CCn1c(-c2ccc(OC)c(OC)c2)n[nH]c1=S	4%	11	-20	3.3	1
COC(=O)c1cc(=O)n(CCc2ccc(OC)cc2)c(=Nc2ccc(F)c(Cl)c2)s1	11%	-3	-39	20	-45
COCCn1c(-c2cccs2)csc1=Nc1cccnc1	-1%	-6	x	x	6
COCCOc1ccc(C(F)(F)F)cc1NC(=O)CN1C(=O)NC(C)(c2ccc3c(c2)OCO3)C1=O (stereo not given)	x	-7	x	3.2	x
COc1ccccc1NC(=O)Nc1nn(C)c2cccc(OC)c12	65%	x	x	3.0	x
COc1ccc(NC(=O)COC(=O)C2CCN(S(=O)(=O)c3ccccc3)CC2)cc1Cl	x	-2	x	4.3	x
O=C(COc1ccc(Cl)cc1Cl)N/N=C/C1CC=CCC1 (stereo not given)	x	-3	x	0.7	x
CCCOc1ccc(C(=O)N2CC3(CC(c4cccc(NC(=O)[C@@H]5CCC(=O)N5)c4)=NO3)C[C@H]2C(=O)NC2(C(N)=O)CC2)cc1 (stereo not given in full)	-4%	-3	-8	-2.8	3
COc1cc2c(cc1OC)C(c1cc(OC)c(OC)c(OC)c1)NCC2 (stereo not given)	-2%	7	-5	-1.1	5
Cc1ccccc1C(=O)NC1CCN(C(=O)NC2CCCCC2)CC1	x	-4	x	1.7	x
Cc1cccnc1Nc1nc(-c2ccccc2)cs1	x	53	x	9.2	x
CN(Cc1ccccc1)C(=O)c1ccccc1NC(=O)c1ccccc1	1%	0	-9	0.2	-2
CC(C)Oc1ccc(S(=O)(=O)N2CCOCC2)cc1NC(=O)C(C)Oc1ccc(F)cc1 (stereo not given)	x	3	x	8.4	x
O=C(CN(C(=O)CCC(=O)Nc1nccs1)c1ccc(F)c(Cl)c1)NCC1CCCO1 (stereo not given)	x	-4	x	2.8	x
CSCCC(NC(=O)c1ccc(Cl)cc1)C(=O)O (stereo not given)	0%	3	x	-0.8	10
Cc1cnc(C(=O)N2CCN(c3ccc(C(F)(F)F)cn3)CC2)cn1	-10%	1	x	0.3	x
Cc1c(NC(=O)c2c(NC(=O)CNC3CC3)sc3c2CCCC3)c(=O)n(-c2ccccc2)n1C	x	9	-22	-2.1	3
CCOCCn1c(CN2CCN(c3ccc(OC)cc3)CC2)nc2c1c(=O)n(C)c(=O)n2C	1%	7	-28	-3.7	x
Cc1ccnc(NC(=O)/C=C/c2ccccc2Cl)c1	4%	3	-25	-1.7	-9
O=C(COC(=O)c1ccccc1C(=O)c1ccccc1)Nc1ccc(SC(F)F)cc1	17%	1	-24	28	2
Cc1ccc(-n2ncc3c(=O)[nH]c(SCC(=O)N4CCCCC4)nc32)cc1	10%	3	-54	-4.4	-3	Arbovirus inh repeat=-6

These rows are one share of the data. The share of hits here may be higher or lower than overall.
